# B2AR ag: beta2AR agonists driving receptor internalization, primary screen, cell-based, FAP fluorogen, flow cytometry; Am2.2-beta2AR cells; reference of the scale not given here; AID 504454, 2011; response, % (test concentration not listed); 0.43% of 340,000 active;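 active = response above a set limit, near 3 SD of response in nonfluorescent compounds, cut at about 42% in these data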;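 note: stock transfer was 100 nL into about 11 µL; a reference agonist was the positive control; negative values mostly stem from fluorescent compounds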
# UCH37 DUB inh: inhibitors of human UCH37 deubiquitinase, primary screen, biochemical, Ub-AMC cleavage, fluorescence; purified proteasome/UCH37; inhibition, % (concentration not given with the values); Ubiquitin carboxyl-terminal hydrolase isozyme L5 (Homo sapiens), Q9Y5K5; 0.33% of 330,000 active;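 active = mean of two replicates above 20%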;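 note: 0% = compound-free wells with enzyme and 100% = wells lacking proteasome; stock transfer was 100 nL into about 20 µL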
#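 Test system – human UCH37 enzyme supplied as purified proteasome complex · Incubation – 30 min preincubation with enzyme, 25 min cleavage at room temperature · Detection – AMC fluorescence from Ub-AMC cleavage, excitation 355 nm, emission 460 nm · Benchmarks – no-proteasome wells (full inhibition) and compound-free wells (no inhibition)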
# Bfl-1 A1 inh: caspase 3/7 activation in MEF A1-2A-BIM cells, primary screen, A1 inhibitor project, cell-based, luminescence, HTS. 0.066% of 330,000 active. caspase activation, % (no concentration beside the values). AID 2462, 2010. Caspase-Glo 3/7 luminescence, 3 h; percent of clofoctol response, vehicle zero;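 active = over half of replicate activation scores above 10%, or exactly half above 10 with the replicate mean above 10; inconclusive = replicate mean below 10 yet half the replicates above 10; inactive = over half of replicates below 10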;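 note: wells of about 30 µL received 50 nL stock; many hits fall short of the cut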
# Vif A3G: inhibitors of Vif binding to APOBEC3G peptide, primary screen, biochemical, TR-FRET, GST-Vif 1-94, biotin-A3G peptide, dose response retest (AID 1117319) | Virion infectivity factor (Human immunodeficiency virus type 1 group M subtype B (isolate … | TR-FRET GST-Vif / biotin-A3G peptide binding; higher % means a stronger effect; test concentration not given here; strong numbers were not always called active | inhibition, %, or IC50 in µM where a hit was titrated | 0.57% of 260,000 active;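 active = above the screen mean plus three standard deviations and confirmed in dose response; inconclusive = results disagree or hit not tested in dose response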;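 note: Vif residues 1-94 fused to GST binding biotinylated APOBEC3G peptide 110-148; 0% = full assay without inhibitor and 100% = GST in place of GST-Vif; retest series ran down from 100 µM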
# HNF4A DNA FP: change in binding of human HNF4A to DNA, primary screen, biochemical, fluorescence polarization, FITC-DNA; 1 h; activity change, % at 10 µM; AID 1224865, 2016; 0.3% of 360,000 active; Hepatocyte nuclear factor 4-alpha (Homo sapiens), P41235; in the data active = activity change above about 30%, passing the limit was not always enough;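 note: controls were the assay level and a saturating level of protein; the project sought stronger binding though the title names inhibitors; some compounds called inactive have numbers as strong as hits; positive values seem to mean higher polarization but the record does not say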
# LANA-H2B inh: blockers of LANA interaction with H2A/H2B – biochemical, FP readout, HTS, primary screen; inhibition, % (concentration not given with the values); Protein LANA1 (Human herpesvirus 8 type P (isolate GK18)), Q9QR71; cell-free LANA-H2A/H2B peptide, fluorescence polarization; 0.6% of 320,000 active; in the data active = inhibition mostly above about 10%, no sharp cut-off; inactive = mostly below about 6.7%;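 note: stock transfer was 7.5 nL into about 10 µL; 0% = median of vehicle wells and 100% = median of positive control wells; one replicate is shown; the record names a cut of 25% in any replicate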
# Target sequence (Q9QR71 whole entry, looked up): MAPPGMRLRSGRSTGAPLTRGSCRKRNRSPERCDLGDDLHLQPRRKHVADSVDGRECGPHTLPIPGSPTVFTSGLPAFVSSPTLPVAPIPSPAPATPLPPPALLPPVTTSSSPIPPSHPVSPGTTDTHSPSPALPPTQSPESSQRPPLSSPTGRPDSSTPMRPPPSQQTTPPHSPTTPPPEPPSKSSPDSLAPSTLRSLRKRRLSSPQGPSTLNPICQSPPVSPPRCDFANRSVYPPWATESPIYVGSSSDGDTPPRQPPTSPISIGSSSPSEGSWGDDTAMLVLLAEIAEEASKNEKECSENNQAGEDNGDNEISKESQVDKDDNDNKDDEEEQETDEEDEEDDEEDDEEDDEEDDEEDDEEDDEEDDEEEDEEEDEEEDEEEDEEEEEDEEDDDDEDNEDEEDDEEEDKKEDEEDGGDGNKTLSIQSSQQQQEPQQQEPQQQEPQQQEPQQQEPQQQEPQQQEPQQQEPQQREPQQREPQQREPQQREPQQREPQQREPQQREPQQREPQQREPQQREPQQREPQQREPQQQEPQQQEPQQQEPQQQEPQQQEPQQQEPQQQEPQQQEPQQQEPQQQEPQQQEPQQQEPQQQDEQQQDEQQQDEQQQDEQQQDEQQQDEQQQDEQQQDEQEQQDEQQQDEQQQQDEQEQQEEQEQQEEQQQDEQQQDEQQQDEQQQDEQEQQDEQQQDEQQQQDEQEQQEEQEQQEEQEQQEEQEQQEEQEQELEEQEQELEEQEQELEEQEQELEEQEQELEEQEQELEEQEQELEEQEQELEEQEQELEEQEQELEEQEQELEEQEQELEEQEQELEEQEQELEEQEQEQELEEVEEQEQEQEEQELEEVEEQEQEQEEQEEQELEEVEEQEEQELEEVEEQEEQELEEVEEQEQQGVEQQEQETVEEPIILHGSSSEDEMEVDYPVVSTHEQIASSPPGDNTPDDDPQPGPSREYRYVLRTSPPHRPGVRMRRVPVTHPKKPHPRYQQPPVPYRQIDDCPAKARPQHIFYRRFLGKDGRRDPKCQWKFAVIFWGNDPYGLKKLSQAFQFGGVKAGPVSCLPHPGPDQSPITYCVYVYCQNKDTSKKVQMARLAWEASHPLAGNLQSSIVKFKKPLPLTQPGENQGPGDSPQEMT
# E coli growth: E. coli growth inhibition, primary screen, OD600. AID 1053175, 2014. OD600 absorbance (no concentration beside the values). 0.21% of 330,000 active. Escherichia coli growth, 23 h; stronger effect = lower value;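 active = OD600 absorbance below the run mean of sample wells minus 3.6 SD, in any replicate, cut at about 0.56 in these data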;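 note: stock transfer was 300 nL into about 60 µL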
# Active calls of the source: *; u = inconclusive; x = not tested or not shown; & = joins results of further samples.
# Every second line gives: B2AR ag	UCH37 DUB inh	Bfl-1 A1 inh	Vif A3G	HNF4A DNA FP	LANA-H2B inh	E coli growth
> COc1ccc(CNC(=O)CNS(=O)(=O)c2cccs2)cc1
  2.7	-1.0	0.0	x	-6.0	-2.1	0.72
> COc1cc2c(cc1OC)C(C1C(=O)CC(C)CC1=O)N(C(=O)CCl)CC2 (stereo not drawn)
  -5.9	-8.4	0.5	28.9%	-0.7	-0.2	0.668
> O=C(NNS(=O)(=O)c1ccc(F)cc1)C1CCN(Cc2cccc(F)c2)CC1
  -5.1	5.7	-1.4	21.9%	6.8	5.2	0.677
> Cc1ccc(S(=O)(=O)Cc2ccc(C(=O)NCCCN3CCCC3=O)o2)cc1
  -6.4	0.8	0.0	6.6%	1.3	6.4	0.691
> O=C(CSc1n[nH]c(-c2ccccc2Br)n1)NC(=O)NCc1ccco1
  5.6	1.2	u	19.0%	-1.4	-1.3	0.683
> C[C@@H](NS(=O)(=O)c1ccc(Br)cc1F)[C@@H](O)c1ccccc1
  5.5	0.0	x	-1.6%	1.8	x	0.697
> Cc1ccc(OCc2cc(C(=O)N(C)Cc3cnn(-c4ccccc4C)c3)no2)cn1
  100.1*	-3.0	-2.8	-1.5%	-2.6	-4.6	0.681
> COc1ccc(S(=O)(=O)Nc2ccc(F)c(F)c2)cc1C(=O)N1CCOCC1
  2.1	-0.5	-0.3	x	1.5	-7.1	0.702
> Cc1cc(-c2nnc(SCCC(=O)Nc3ccccc3)o2)no1
  3.9	-0.4	0.5	1.6%	-1.5	-0.6	0.715
> Cc1cccc(C)c1NC(=O)CNC(=O)c1ccncc1
  3.2	0.9	0.0	-0.7%	0.3	1.0	0.681
> Cn1c(-c2ccc(N)cc2)nc2ccccc21
  -6.6	-7.3	-6.8	2.3%	1.0	-1.1	0.676
> COc1ccc(S(=O)(=O)NCCSCc2ccc(Cl)cc2)cc1NC(C)=O
  4.6	-0.4	x	-3.1%	2.9	x	0.688
> CCOc1ccc(C(=O)NC(C(=O)N2CCC2)C(C)C)cc1 (stereo not drawn)
  -8.9	-0.1	x	-3.2%	0.8	x	0.712
> Cc1ccccc1-c1nc(CS(=O)(=O)CC(=O)NCCCN2CC(C)CC(C)C2)c(C)o1 (stereo not drawn)
  11.6	-1.6	0.3	x	-1.8	1.0	0.619
> COc1ccc(NC(=O)Cn2cc(C(=O)C3CC3)c3ccccc32)cc1
  4.2	3.2	0.6	x	-4.2	-1.0	0.652
> COc1ccc(NC(=O)CCCn2c(=O)c3sccc3n(Cc3cccc(C)c3)c2=O)cc1
  -3.3	-2.1	-0.4	-15.3%	-2.6	3.8	0.718
> Cc1cc(C)n(-c2ccc(Cl)c(C(=O)OCC(=O)N3CCCCC3C)n2)n1 (stereo not drawn)
  -10.2	2.0	0.1	x	-0.3	-0.5	0.766
> COc1ccc(-n2ccc(=O)c(C(=O)Nc3ccc(S(=O)(=O)Nc4nccs4)cc3)n2)cc1
  15.2	5.1	-0.2	x	3.5	1.7	0.715
> CCSc1nc2c(cnn2-c2ccccc2)c(=O)n1N
  -3.2	-0.2	0.5	-3.1%	-2.5	0.9	0.652
> CC(OC(=O)CCCSc1nc2ccccc2s1)C(=O)NC(N)=O (stereo not drawn)
  -3.2	2.9	-1.1	u	-0.3	-1.0	0.654
> CC(C)(C)NC(=O)c1cc([N+](=O)[O-])ccc1N1CCCCC1
  -0.3	6.0	0.0	72.1%	0.8	-12.1	0.703
> CS(=O)(=O)Nc1ccc(C(=O)Nc2ccc(S(=O)(=O)Nc3nccs3)cc2)cc1
  5.4	1.0	-0.5	x	0.6	2.7	0.708
> COc1ccc(CNC(=O)/C=C/c2cc([N+](=O)[O-])ccc2OC(F)F)cc1OC
  -4.6	4.5	0.5	21.6%	-1.1	-4.6	0.677
> O=C(NCC(=O)N1CCN(Cc2c(F)cccc2Cl)CC1)c1cccc(Cl)c1
  -5.5	1.3	x	4.7%	-1.0	x	0.676
> COc1ccc2[nH]c(C)c(C(=O)CN(C)C)c2c1
  8.1	1.5	-0.1	-3.9%	-3.6	-1.4	0.679
> Cc1cccc(CCNC(=O)C2CCC(CNc3c(N4CCCC4)c(=O)c3=O)CC2)c1 (stereo not drawn)
  -4.8	2.4	-0.5	4.2%	3.5	-3.6	0.719
> COc1ccccc1C(c1nnnn1C(C)(C)C)N1CCN(Cc2ccccc2)CC1 (stereo not drawn)
  3.8	1.6	-1.0	u	1.7	3.6	0.686
> COc1cccc2sc(Nc3nc(-c4cc5ccccc5oc4=O)cs3)nc12
  -8.9	-13.6	0.5	x	9.8	3.2	0.721
> O=C(Nc1nncs1)c1cccc(S(=O)(=O)N2CCCCC2)c1
  0.1	3.9	0.3	-3.2%	-1.0	0.6	0.648
> Cc1cc(C)n(-c2ccc(NC(=O)C3CCCCN3C(=O)c3occc3C)cc2)n1 (stereo not drawn)
  -7.0	3.8	0.2	x	1.9	-5.0	0.729
> COc1ccccc1-c1nnc(SCCN2CCOCC2)n1-c1ccc(C)cc1
  9.8	5.1	1.1	8.1%	1.0	8.4	0.697
> COC(=O)c1c(NC(=O)c2nn(C)cc2Cl)sc2c1CCCC2
  -14.9	-332.1	0.1	5.1%	0.3	-1.0	0.743
> CC(Oc1ccc2c3c(c(=O)oc2c1)CCCC3)C(=O)NCc1ccncc1 (stereo not drawn)
  -102.8	-43.2	-1.9	x	-0.8	-0.4	0.68
> CCOc1ccc(-n2c(C)cc(/C=N/Nc3nc(C)cc(=O)[nH]3)c2C)cc1
  2.8	x	0.9	4.5%	-2.1	3.1	x
> CC(C#N)(Nc1ccc(Cl)cc1)c1cccnc1 (stereo not drawn)
  -1.3	6.4	-0.3	-7.7%	-2.9	-0.2	0.659
> O=C(CSc1nnc(-c2cccnc2)n1Cc1ccco1)c1ccc(Cl)c(Cl)c1
  -6.2	3.3	-0.4	16.9%	0.5	2.1	0.715
> CCOC(=O)c1cn[nH]c1NC(=S)Nc1ccccc1
  -0.2	1.7	-0.2	-3.5%	2.9	-3.3	0.692
> Cc1nn(-c2ccccc2)nc1CNC(=O)C1CC1
  -1.4	4.6	-3.2	4.0%	-5.1	2.4	0.718
> COc1ccc(-c2cc3ccccc3n2CC(O)CN2CCOCC2)cc1 (stereo not drawn)
  3.5	-1.4	1.8	-2.1%	0.1	-1.5	0.662
> CCN(CC)CCN1C(=O)Cn2c(C)c(C)c3cccc1c32
  -2.1&0.1	4.4&4.7	2.4&0.9	5.1%&8.1%	-1.0&-0.8	0.9&-0.9	0.653&0.666
> CC1(C)CC(=O)c2cc(C(=O)O)c(=O)n(-c3ccccc3)c2C1
  3.7	-1.5	-1.3	1.1%	-2.1	2.5	0.719
> COC(=O)CNC(=O)CN(c1ccc(OC)cc1OC)S(=O)(=O)c1ccccc1
  3.2	4.0	0.6	x	-3.0	2.2	0.687
> CN1CCc2c(c3c(n2C)CCN(C)[C@@H]3c2cccnc2)[C@H]1c1cccnc1
  21.7	0.1&0.6	-0.6&1.4	1.2%&-3.3%	-1.6	1.2&1.4	0.622
> Cc1cccc(C(=O)NNC(=O)c2ccccc2Br)c1
  0.6	0.2	0.1	u	1.1	-0.1	0.707
> Cc1nc2cc(N3CCCCC3)c(NC(=O)c3cccnc3)cc2c(=O)n1Cc1ccccc1
  12.6	-51.7	0.2	-3.5%	11.4	1.3	0.798
> Cc1sc2ncnc(N3CCN(S(=O)(=O)c4ccc(Br)cc4)CC3)c2c1C
  2.6	5.1	1.0	x	4.8	4.1	0.714
> Cc1cc(C)n(-c2ccc(F)cc2CN2CCN(C3CCCC3)C(CCO)C2)n1 (stereo not drawn)
  7.7	1.6	-1.3	4.6%	0.2	-1.9	0.636
> CC(c1ccccc1)c1nnc(NC(=O)Nc2ccccc2)s1 (stereo not drawn)
  -5.7	3.5	-0.4	8.0%	-1.5	2.0	0.679
> O=C(c1ccccc1)N1N=C(c2ccccc2)CC1c1ccccc1O (stereo not drawn)
  -6.8	0.8	-0.7	-9.8%	-1.4	4.0	0.664
> CC(C)C(=O)N(Cc1cc(=O)[nH]c2ccccc12)c1ccccc1
  -22.0	-2.1	-1.0	11.0%	-0.1	-3.1	0.666
> CCOC(=O)Cc1csc(NC(=O)c2ccco2)n1
  3.3	2.4	0.1	11.2%	-2.8	-1.4	0.663
> CCCCC(=O)Nc1nnc(SCC(=O)N2CCN(c3ccccc3OC)CC2)s1
  -2.6	-0.7	-0.9	-5.4%	0.0	2.1	0.693
> COc1ccc(N(CC(=O)O)S(=O)(=O)c2ccccc2[N+](=O)[O-])c(OC)c1
  1.4	4.2	-0.4	-3.0%	0.3	4.5	0.676
> COC(=O)Cn1c(=O)c(=O)n(CC(=O)OC)c2ccccc21
  -1.9	-10.9	0.2	14.7%	1.3	1.0	0.737
> CCn1c(SCC(=O)Nc2nnc(C)s2)nnc1C(C)NC(=O)c1ccccc1F (stereo not drawn)
  0.0	3.5	-0.6	x	4.4	2.4	0.71
> Clc1ccc(CNC2CCCC2)cc1
  0.7	4.9	-0.1	9.5%	-1.4	5.7	0.734
> CCc1ccc(N2CC(C(=O)Nc3ccc(C)c(S(=O)(=O)N4CCOCC4)c3)CC2=O)cc1 (stereo not drawn)
  -4.3	2.0	0.5	-1.2%	-1.8	-1.9	0.68
> CC(C)NS(=O)(=O)c1ccc(OCC(=O)NC2CCCCCC2)cc1
  6.6	x	0.1	x	-5.7	6.8	x
> O=C(NCc1ccc(F)cc1)c1cc(S(=O)(=O)N2CCCCC2)ccc1N1CCOCC1
  -2.5	4.5	x	-5.7%	-4.2	x	0.707
> CC(C)NC(=O)C(=O)NCCCN1CCOCC1
  0.9	7.0	-0.1	u	6.8	-1.6	0.636

# The list goes on:
# Every second line gives: B2AR ag	UCH37 DUB inh	Bfl-1 A1 inh	Vif A3G	HNF4A DNA FP	LANA-H2B inh	E coli growth
> O=C(O)CCCC(=O)OCCc1cc2ccccc2c(=O)o1
  3.0	3.0	u	x	4.1	-4.0	0.646
> CCOC(=O)c1ccc(S(=O)(=O)N2CCN(C(=O)c3cc(=O)c4ccccc4o3)CC2)cc1
  8.4	2.0	-0.6	4.2%	4.3	0.1	0.688
> COc1cc(/C=C2/C(=N)N3C=CSC3=NC2=O)ccc1OCCCOc1ccccc1C
  -1.7	-38.4	-1.1	-4.6%	3.2	3.0	0.681
> NS(=O)(=O)c1ccc(NC(=O)CSc2n[nH]c(=O)n2C2CC2)cc1
  1.7	4.4	0.8	x	2.2	-3.6	0.668
> CCOC(=O)c1c(N)nn(C(=O)C(C)C)c1-c1ccccc1
  -4.5	3.5	0.4	-3.5%	0.5	-0.3	0.716
> CCOC(=O)c1ccc(N2C(=O)CC(N3CC(C)OC(C)C3)C2=O)cc1 (stereo not drawn)
  1.3	1.5	0.0	4.0%	0.3	1.5	0.665
> Cn1c(NC(=O)c2ccco2)c(-c2ccccc2)c(=O)c2ccccc21
  -3.2	7.8	-0.4	1.6%	-1.1	3.5	0.698
> CC(C)Cc1ccccc1S(N)(=O)=O
  1.1	5.0	0.1	x	3.2	-0.6	0.668
> CC(OC(=O)CCc1nc2ccccc2c(=O)[nH]1)C(=O)Nc1ncc(Cl)cc1Cl (stereo not drawn)
  -1.5	2.3	0.2	2.4%	4.6	5.0	0.66
> O=C(/C=C/c1ccccc1)Nc1cccc(S(=O)(=O)Nc2ccccc2F)c1
  3.0	2.7	-1.3	x	4.2	-1.1	0.657

# Source: PubChem BioAssay (several laboratories)
